YopH inh – YopH (Yersinia) phosphatase inhibition | fluorescence Ex485/Em525 | inhibition, %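 (about 10 µM by stock and volumes)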 | actives 0.16% (n = 140,000) | AID 898;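 active = inhibition of 50% or more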;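 also: controls were vehicle for no effect and minimum signal wells for full effect; inactives centre near -20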
Mtb H37Rv – M. tuberculosis H37Rv growth inhibitors, H37Rv strain (AID 1626) | M. tuberculosis H37Rv growth inhibition; higher % means a stronger effect | inhibition, % at 10 µM; hits with a dose series show IC50 in µM | actives 0.95% (n = 220,000);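 active = confirmed in a dose series; inconclusive = inhibition above 80% but not taken into the dose series; inactive = below 80% or under 30% at every dose of the series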;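 also: bacteria incubated seven days before Alamar blue readout; 0% = bacteria only wells and 100% = bacteria with antibiotic wells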
Mtb bLac sens – beta-lactam sensitization of Mtb H37Rv; M. tuberculosis H37Rv growth with meropenem, percent inhibition; hits of this screen are not shown here; inhibition, % at 25 µM; actives 0.27% (n = 330,000); AID 434955;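 active = about 74% or more and at least 40 points above the plate without the antibiotic, then above 30% in a dose series; inconclusive = first-round hits that could not be retested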;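 also: growth measured after seven days incubation then overnight dye step; 0% = bacteria only wells and 100% = bacteria with antibiotic; twin plates without the antibiotic show which effects depend on it; some results filed as inactive read as strong as hits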
Arbovirus inh – antivirals against arbovirus infection. arbovirus infection cell-based antiviral screen. inhibition, % at 10 µM. actives 0.37% (n = 200,000);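 active = inhibition from about 30%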;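 also: bluetongue infection of BSR cells; cell survival read as ATP light after 72 h; 0% = infected wells without compound and 100% = uninfected wells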
RecA splice inh – blocks M. tuberculosis RecA intein splicing | cell-free RecA intein splicing, fluorescence | inhibition, %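 (about 9 µM by stock and volumes)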 | actives 0.75% (n = 290,000) | P9WHJ3 | AID 2221; in the data active = inhibition above about 30%; inconclusive = no clear call, values can overlap the other calls;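 also: 0% = vehicle wells and 100% = reference inhibitor control wells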
Target sequence (P9WHJ3 whole entry, looked up, canonical isoform): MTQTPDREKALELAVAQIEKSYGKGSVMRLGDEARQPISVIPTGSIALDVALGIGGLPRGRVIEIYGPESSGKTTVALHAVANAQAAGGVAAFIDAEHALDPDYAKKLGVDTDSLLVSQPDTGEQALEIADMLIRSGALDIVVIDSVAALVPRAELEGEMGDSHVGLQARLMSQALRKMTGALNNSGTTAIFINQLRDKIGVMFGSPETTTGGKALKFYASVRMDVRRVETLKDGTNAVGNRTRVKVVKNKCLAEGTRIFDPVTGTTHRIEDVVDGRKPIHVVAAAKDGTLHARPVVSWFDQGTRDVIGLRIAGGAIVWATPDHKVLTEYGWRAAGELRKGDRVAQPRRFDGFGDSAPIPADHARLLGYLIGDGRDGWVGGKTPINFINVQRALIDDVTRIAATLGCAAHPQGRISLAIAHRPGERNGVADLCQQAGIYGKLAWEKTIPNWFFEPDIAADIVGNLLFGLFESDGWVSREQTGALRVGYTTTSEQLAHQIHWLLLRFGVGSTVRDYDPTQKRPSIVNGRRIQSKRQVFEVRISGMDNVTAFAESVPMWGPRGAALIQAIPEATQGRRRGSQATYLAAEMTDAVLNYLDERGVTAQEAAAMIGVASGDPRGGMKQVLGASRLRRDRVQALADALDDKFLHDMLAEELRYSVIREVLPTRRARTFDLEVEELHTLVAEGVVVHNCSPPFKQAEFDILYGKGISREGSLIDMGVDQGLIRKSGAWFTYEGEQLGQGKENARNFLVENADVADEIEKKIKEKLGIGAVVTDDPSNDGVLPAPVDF
Arbovirus inh repeat – also measured in Arbovirus inh; calls as there; inhibition, %; measured here: 10K subset replicate screen; many hits read low in the repeat;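 first of two repeat runs on a subset; 0% = infected and 100% = uninfected wells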
An asterisk follows results filed as active; ? = inconclusive; / = not tested or not shown; & = joins results of further samples.

A first look, seven compounds:
SMILES	YopH inh	Mtb H37Rv	Mtb bLac sens	Arbovirus inh	RecA splice inh	others
O=C(COC(=O)c1ccc(Br)o1)NC1CCCCC1	/	23%	0	5	0.7
O=C(NNC(=O)C1CC=CCC1)c1ccccc1O (configuration not stated)	/	/	1	/	-2.6
CCSC(=Nc1ccccc1)Nc1ccccc1	/	14%	-3	-1	12
Oc1c(Br)cc(Br)cc1CNc1nccs1	/	/	2	/	-0.6
COc1ccc(CCC(C)NCc2ccccc2OC)cc1 (configuration not stated)	/	/	-4	/	2.2
Cc1cc(C(=O)N2CCCC(CNS(=O)(=O)c3cccs3)C2)nn1C (configuration not stated)	/	-6%	-1	5	1.2
COc1ccc(OC)c2c1cc(C(=O)N[C@H](C(=O)N1CCC[C@H]1C(=O)O)C(C)C)n2C	/	/	1	/	1.9

All compounds of this part, from the first entry:
SMILES	YopH inh	Mtb H37Rv	Mtb bLac sens	Arbovirus inh	RecA splice inh	others
O=C(COC(=O)c1ccc(Br)o1)NC1CCCCC1	/	23%	0	5	0.7
O=C(NNC(=O)C1CC=CCC1)c1ccccc1O (configuration not stated)	/	/	1	/	-2.6
CCSC(=Nc1ccccc1)Nc1ccccc1	/	14%	-3	-1	12
Oc1c(Br)cc(Br)cc1CNc1nccs1	/	/	2	/	-0.6
COc1ccc(CCC(C)NCc2ccccc2OC)cc1 (configuration not stated)	/	/	-4	/	2.2
Cc1cc(C(=O)N2CCCC(CNS(=O)(=O)c3cccs3)C2)nn1C (configuration not stated)	/	-6%	-1	5	1.2
COc1ccc(OC)c2c1cc(C(=O)N[C@H](C(=O)N1CCC[C@H]1C(=O)O)C(C)C)n2C	/	/	1	/	1.9
COc1ccccc1OCC(=O)N1CCC2(CC1)CC(=O)c1ccccc1O2	/	/	-15	/	0.3
Cc1nn(-c2ccc(F)cc2)c(Cl)c1/C=C/C(=O)OCC(=O)Nc1ccc(F)cc1F	-26	4%	3	3	6.6
Cc1ccc(NC(=O)COc2cccnc2[N+](=O)[O-])cc1S(=O)(=O)N1CCCCC1	-25	-1%	-4	3	-1.2
O=C(CN1C(=O)S/C(=C\c2ccc(F)cc2)C1=O)NC1C=CS(=O)(=O)C1 (configuration not stated)	/	/	-2	/	1.8
Cc1ccc(NC(=O)C2CCCN(S(=O)(=O)c3cccc4cccnc34)C2)cc1 (configuration not stated)	/	/	3	/	-0.7
Cc1ccccc1C(=O)c1ccc2c(c1)n(C)c(=O)n2C	-36	3%	-6	-12	-1.4
COc1cccc(C(=O)Nc2ccc(NC(C)=O)cc2)c1	-21	-17%	-4	2	11
CC(=O)Cc1nsc(NC(=O)c2c(-c3ccccc3Cl)noc2C)n1	-4	-5%	12	4	1.1
Cc1cc(S(=O)(=O)NC2CC(C)(C)NC(C)(C)C2)c(Cl)cc1Cl	/	/	-3	/	1.0
CS(=O)(=O)ON=C1CCN(S(=O)(=O)c2ccccc2)CC1	/	5%	-4	4	-3.4
O=C(c1cc(-c2ccccc2)nc2ccccc12)N1CCC2(CC1)OCCO2	-38	-9%	-1	3	2.7
COc1ccc(/C=C/C(=O)NCCCc2ccccc2)cc1OC	5	-1%	-5	-4	-1.6
CC1CCCCN1C(=S)Nc1ccc2nc3n(c(=O)c2c1)CCCCC3 (configuration not stated)	-17	-4%	-3	-10	-0.5
CN1C(CC(=O)c2ccccc2)CCCC1CC(O)c1ccccc1 (configuration not stated)	-13	-5%	2	0	-1.1
COc1ccc(C(C)=O)c(OC(=O)c2ccco2)c1	2	0%	-6	1	9.9
CN1CCN(c2ccc(CNS(=O)(=O)Cc3cccc(C(F)(F)F)c3)cc2)CC1	/	-9%	0	/	1.3
C/C(=N\NC(=O)CNc1cccc(Cl)c1C)c1cccs1	/	4%	-4	-4	2.8
CNC(=O)CN1C(=O)COc2ccc(S(=O)(=O)N3CCCCCC3)cc21	/	/	-3	/	-0.5
COc1ccc([N+](=O)[O-])cc1NC(=S)NC(C)=O	/	0%	18	-4	2.4
Cc1ccc(/C=N/n2c(-c3cccnc3)n[nH]c2=S)o1	/	-8%	-9	/	-0.3
Cc1c(Cl)cccc1NS(=O)(=O)c1cn(C)c(=O)n(C)c1=O	/	/	4	/	0.7
COc1ccc(CCNC(=O)COc2ccc3c(C)cc(=O)oc3c2)cc1OC	/	/	-5	/	0.1
COc1cccc(C(c2nnnn2Cc2ccccc2)N2CCN(C(=O)c3ccco3)CC2)c1OC (configuration not stated)	25	2%	4	-4	1.0
C=CCn1c2ccccc2c2nnc(SCCN3CCCCC3)nc21	/	/	70	/	-1.3
Cc1ccnc(NC(=O)CN(C)S(=O)(=O)c2cccc3nsnc23)c1	-36	-5%	0	9	0.9
O=C(NCC(c1cccs1)N1CCOCC1)c1cc(-c2ccccn2)nc2ccccc12 (configuration not stated)	/	-12%	9	/	-0.7
COc1ccc(NC(=O)C2C(c3ccccc3)C2(Cl)Cl)cc1 (configuration not stated)	/	0%	8	/	1.0
COc1cc(/C=N/NC(=O)c2cc3c(ccc4ccccc43)o2)cc(OC)c1O	/	/	5	/	-7.1
Cc1nc(CCN2C(=O)c3ccccc3C2=O)n[nH]1	-6	-18%	-3	-3	-3.0
CCOC(=O)C1=C(C)NC(=O)NC1c1ccc(Br)o1 (configuration not stated)	-19	3%	9	2	6.2
COc1ccc(-c2cnn(-c3ccccc3)c2N)cc1OC	-37	10%	8	5	0.4
Cc1cc(NC(=O)CSc2ncnc3sc(C)c(C)c23)no1	/	2%	1	-1	1.9
O=C(NCCC1=CCCCC1)C1CCC(CNc2nc(=S)[nH]c3ccccc23)CC1 (configuration not stated)	/	-1%	-6	-9	28
CCOP(=O)(CN(CC)CCNP(=O)(OCC)OCC)OCC	-37	-11%	-6	0	0.9
Cc1nn(-c2ccccc2)c2nc(-c3cccs3)cc(C(=O)NN)c12	/	3%	-1	-20	-4.4
C=C1CCN([C@@H](CC(C)C)C(=O)NCCCc2ccccc2)S(=O)(=O)c2ccccc21	/	2%	-4	/	8.3
O=C(NCCC(=O)N1CCNC1=O)OCc1ccccc1	-34	-8%	1	-7	-1.1
CCc1cc(C(=O)N2CCCC(C(=O)c3ccc(Oc4ccccc4)cc3)C2)n(C)n1 (configuration not stated)	/	/	2	/	4.5
Cn1c(=O)c2c([nH]c(=S)n2CCCc2ccccc2)n(C)c1=O	/	/	9	/	0.3
O=S(=O)(NCCc1ccccc1)c1ccc(-n2cnnn2)cc1	/	/	2	/	-1.8
NC(=O)c1cc(N2CC2)c([N+](=O)[O-])cc1[N+](=O)[O-]	/	-6%	1	/	1.7
NC(=O)CC(NC(=O)Cc1ccc(Cl)cc1)c1ccc(NCCCN2CCCC2=O)c([N+](=O)[O-])c1 (configuration not stated)	/	/	-4	/	1.5
CC(=O)C1=C(C)Nc2ncnn2C1c1ccc(Cl)cc1Cl (configuration not stated)	-33	7%	-7	8	-2.2
COC(=O)c1ccccc1NC(=O)CSc1nnc(-c2ccoc2C)n1C	-59	3%	-2	2	2.7
O=C(Nc1cccc(Cl)c1)c1cccnn1	/	/	-2	/	3.4
Cc1onc(-c2ccccc2)c1C(=O)N1CCN(S(=O)(=O)c2ccc(Cl)cc2)CC1	/	/	-2	/	3.1
CCCCN1C(=O)C(NC(=O)C2CC2)(C(F)(F)F)C2=C1CC(C)(C)CC2=O (configuration not stated)	-27	-7%	-3	3	0.5
S=C1NC(c2ccccc2)=NCN1c1ccc(Br)cc1	-36	3%	9	-1	1.0
CCOC(=O)c1c(S(=O)(=O)NCC(=O)Nc2cccc(F)c2)c(C)n(C)c1C	/	/	1	/	-0.4
CCN(CC)C(=O)c1cn(C)c(=O)c2cc(OC)c(OC)cc12	-15	-3%	?	9	5.1	Arbovirus inh repeat=-3
Nc1nc(SCC(=O)Nc2cc(S(=O)(=O)N3CCOCC3)ccc2Cl)n[nH]1	/	-1%	-13	6	0.5
N#Cc1ccc(C(=O)OCC(=O)Nc2ccc(N3CCOCC3)cc2)cc1	/	-2%	-6	12	-0.4
CCCCOP(=O)(c1ccc(N(C)C)cc1)C(O)c1ccc(N(C)C)cc1 (configuration not stated)	/	/	-2	/	0.9
(listing goes on)
SMILES	YopH inh	Mtb H37Rv	Mtb bLac sens	Arbovirus inh	RecA splice inh	others
O=C(Nc1nccs1)c1cc(-c2ccccn2)nc2c(Cl)cccc12	/	/	6	/	-0.3
Cn1cccc1C(=O)Nc1nc(-c2ccccn2)cs1	-1	?	88	-26	2.1
Cc1ccnc(NC(=O)c2cccc(S(=O)(=O)NCc3ccccc3)c2)c1	/	/	-17	/	1.0
Cc1cc(NC(=O)CN2CCCC2c2nc3ccccc3s2)no1 (configuration not stated)	-30	-8%	-7	4	1.8
CC(C)[C@H](N)C(=O)OCCOCn1cnc2c(=O)[nH]c(N)nc21	/	-7%	0&-1	/	-0.4
O=c1[nH]c(CSc2nc3ccccc3[nH]2)nc2c1cnn2-c1ccccc1	-30	10%	/	19	7.2
COC(=O)/C(=C\Nc1ccc(OC)cc1)NC(=O)c1ccc(Cl)cc1Cl	-13	46%	95	5	2.8
CC1(C)Cc2c(cnn2-c2ccccc2)C(NC(=O)CCCN2CCCCC2=O)C1 (configuration not stated)	/	/	-2	/	-1.1
Cn1c(SCC(=O)NC2CCCCC2)nnc1-c1ccncc1	/	/	3	/	0.2
Cc1nnc(SC(C)C(=O)Nc2ccc(S(=O)(=O)N3CCCCC3)cc2)s1 (configuration not stated)	4	-1%	1	0	3.3
CC(=O)N(c1ccccc1)c1nnc(-c2cnc(C)cn2)s1	/	0%	-1	-6	-1.1
O=c1[nH]nc(SCCS(=O)(=O)c2ccc(F)cc2)n1-c1ccccc1	/	-5%	-7	/	-1.5
CCC(=O)c1cn([C@@H](CCC(OC)OC)CC(=O)OC(C)(C)C)cc1CC	/	-11%	-10	/	0.8
O=Cc1c[nH]c2ncccc12	/	/	-1	/	1.6
O=C(c1ccccc1NS(=O)(=O)c1cccs1)N1CCCC1	-52	7%	10	-2	-2.7	Arbovirus inh repeat=0
O=C(Nc1nnc(C2CC2)s1)c1cc(Cl)sc1Cl	/	/	6	/	1.2
COc1ccccc1OC(=O)CCN1c2ccccc2Sc2ccccc21	-30	12µM*	99	11	8.0
Cc1nc(N2CCOCC2)nc(N2CCC(C)CC2)c1[N+](=O)[O-]	/	7%	3	/	7.7
COc1ccc(NC(=S)Nc2ccccc2)cc1	/	5%	-5&1	/	-0.5&-0.1
COc1ccc(NC(=O)Nc2ccc(F)c(Cl)c2)cc1	/	5%	6	17	-1.1
CCCNC(=O)C1CCN(c2nc(C)cc(C)n2)CC1	-38	-2%	-14	0	0.2
Cc1c(S(=O)(=O)Nc2ccc3c(c2)OCCO3)cnn1C	/	2%	-1	-1	-3.0
CCN(CC)CCNC(=O)CNC(=O)c1nn(-c2ccc(OC)c(OC)c2)c(=O)c2ccccc12	/	/	-6	/	4.9
COc1cc(NC(=O)c2cccs2)ccc1NC(=O)c1cc2ccccc2o1	/	-6%	-8	-19	-11
COc1ccc(OC)c(CC(=O)NC(c2ccccc2)c2ccccc2)c1	/	/	1	/	0.5
Cc1ccccc1NC(=O)COC(=O)CN1C(=O)NC(C)(C)C1=O	8	3%	-9	6	2.3
CNC(=O)/C(C#N)=C\c1ccc(CNS(=O)(=O)c2ccccc2)o1	-28	-3%	1	6	0.5
COc1ccc(N2CCN(CC(=O)N3c4ccccc4CC3C)CC2)cc1 (configuration not stated)	/	/	3	/	0.4
COc1ccc(CNC(=O)COC(=O)CCC(=O)c2cccs2)cc1	/	-2%	-5	/	0.6
NC(=O)c1cc(Cc2ccccc2)sc1NC(=O)c1ccco1	-41	7%	52	-25	/
COc1ccc(-n2ncc(N(C)n3cccc3)c(Cl)c2=O)cc1	-23	0%	3	-4	-4.4
Cc1noc(C)c1CSCC(=O)Nc1nc2ccc(S(C)(=O)=O)cc2s1	/	/	-9	/	0.1
Cc1ccc(-c2nnc(SCC#CCOC(=O)c3cccs3)o2)cc1	-33	?	100	3	19
CC(C)C[C@H](NC(=O)c1[nH]cnc1C(=O)N[C@@H](C)C(=O)OCc1ccccc1)C(=O)OC(C)(C)C	/	/	-11	/	1.7
O=C(CCN1C(=O)COc2ccccc21)NCCN1CCc2ccccc2C1	-32	2%	-7	1	1.3
Cc1ccccc1NC(=S)c1ccc2ccccc2n1	/	/	61	/	12
Nc1cc(-c2ccc(Br)cc2)nc2cc(-c3ccccc3)nn12	/	0%	-7	9	-0.5
O=C(c1oc(=O)c2ccccc2c1-c1ccccc1)N1CCN(C2CCCCC2)CC1	-32	-9%	2	0	0.7	Arbovirus inh repeat=2

Assay outcomes as filed in PubChem BioAssay.

The list is partial (hit frequency here may not be typical).
